Assay outcomes deposited in PubChem by Broad Institute.
Bfl-1 A1 inh: inhibitors of the anti-apoptotic protein A1, read as caspase activation. MEF A1-2A-BIM cells, Caspase-Glo 3/7 luminescence, 3 h; percent of clofoctol response, vehicle zero. caspase activation, % (concentration not given with the values). 0.066% of 330,000 active;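 active = over half of replicate activation scores above 10%, or exactly half above 10 with the replicate mean above 10; inconclusive = replicate mean below 10 yet half the replicates above 10; inactive = over half of replicates below 10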;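 note: wells of about 30 µL received 50 nL stock; many hits fall short of the cut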
AF4-AF9 inh: MLL-AF4/AF9 protein interaction inhibition | P42568 | AlphaScreen, biotin-AF4 peptide binding to FLAG-AF9 | inhibition, % at 10 µM | 0.47% of 350,000 active | AID 651704;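 active = every replicate reaching a set inhibition limit, whatever the replicate mean, cut at about 25% in these data; inconclusive = mean inhibition reaches that limit but some replicates miss it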;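 note: 0% = plate neutral control median and 100% = total signal loss; the record names both 10 and 1 µM as test concentration; the first replicate is given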
Target sequence (P42568 whole entry, looked up): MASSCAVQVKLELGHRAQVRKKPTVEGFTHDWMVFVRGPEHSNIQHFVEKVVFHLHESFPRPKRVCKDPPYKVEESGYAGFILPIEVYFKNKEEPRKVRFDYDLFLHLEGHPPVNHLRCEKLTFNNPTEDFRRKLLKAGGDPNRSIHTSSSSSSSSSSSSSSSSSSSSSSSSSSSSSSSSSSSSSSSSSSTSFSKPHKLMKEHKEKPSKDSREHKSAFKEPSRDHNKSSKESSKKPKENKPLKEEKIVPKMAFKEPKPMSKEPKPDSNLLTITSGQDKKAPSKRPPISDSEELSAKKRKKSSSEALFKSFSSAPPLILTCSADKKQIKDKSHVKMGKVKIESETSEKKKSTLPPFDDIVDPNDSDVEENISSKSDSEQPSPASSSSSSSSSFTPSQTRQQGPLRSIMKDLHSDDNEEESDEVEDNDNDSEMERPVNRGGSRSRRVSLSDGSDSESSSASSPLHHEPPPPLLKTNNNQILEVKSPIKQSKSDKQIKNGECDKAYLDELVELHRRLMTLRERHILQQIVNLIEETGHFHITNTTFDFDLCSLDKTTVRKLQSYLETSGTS
rRNA inh HTS: inhibitors of bacterial rRNA selective over humanized ribosomes. E. coli WT GFP vs humanized-ribosome RFP mutants, fluorescence, 24 h; stronger effect = lower value; DMSO median 0, no signal -100. GFP signal change (wild-type ribosome), % (test concentration not listed). 1.6% of 350,000 active. AID 720706;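 active = significant combined selectivity score with lowered wild-type GFP, culture density cut under 30%, mutant RFP and density less affected; inactive = any of these conditions unmet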; note: one replicate is shown; some compounds called inactive have numbers as strong as hits
T cruzi inh: blocks replication of Trypanosoma cruzi. 1.4% of 300,000 active. T. cruzi beta-gal in NIH3T3, luminescence, 90 h. AID 1885. inhibition, % (concentration not given with the values);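 active = mean inhibition across valid replicates above about 55%, limit read from the data; inconclusive = mean below that limit but half or more replicates reach it; inactive = mean below it, under half of replicates reach it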;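 note: signal also drops with host cell toxicity which is not excluded here; 0% = plate median of DMSO wells and 100% = zero luminescence signal; higher percent means less beta-gal luminescence so fewer parasites; stock transfer was 50 nL into about 50 µL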
rRNA inh HTS OD600: recorded beside rRNA inh HTS, whose call it bears; OD600 change, %; measured here: OD600 growth;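 optical density of the mix in the first replicate; 0 = DMSO median and -100 = no signal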
rRNA inh HTS RFP: second read-out of rRNA inh HTS, no call of its own (marks repeat the call); RFP signal change, %; measured here: RFP humanized mutant strains;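 first replicate; 0 = DMSO median and -100 = no signal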
Starred values were filed as active, the others as inactive; u = inconclusive; x = not tested or not shown. This is a subset (hit frequency here may not be typical).

Order of results – rRNA inh HTS | rRNA inh HTS RFP | AF4-AF9 inh | T cruzi inh | rRNA inh HTS OD600 | Bfl-1 A1 inh
CS(=O)(=O)N[C@@H]1C[C@@H]2O[C@H](CO)CC[C@@H]2O[C@@H]1CCc1ccc(-c2ccccc2F)cc1
    x | x | 1.4 | x | x | x
CN1c2ccc(C3=CCCCC3)cc2[C@@H]2[C@@H](CCN2C(=O)C2CCCCC2)[C@@H]1CO
    x | x | u | x | x | x
O=C(NC[C@H]1CC[C@H]2[C@H](CN2Cc2cc(-c3ccccc3)on2)O1)c1ccc2c(c1)OCO2
    x | x | -0.4 | x | x | x
O=C(NC[C@H]1CC[C@@H]2[C@@H](CN2Cc2cccc(Cl)c2)O1)C1CC1
    x | x | -3.3 | x | x | x
COc1cccc(CN2C[C@H]3O[C@H](CNS(=O)(=O)c4cn(C)cn4)CC[C@H]32)c1
    x | x | -4.0 | x | x | x
CCC(=O)N[C@@H]1C[C@@H]2O[C@@H](CO)CC[C@@H]2O[C@@H]1CCc1ccc(-c2cccc(OC)c2)cc1
    x | x | 0.2 | x | x | x
O=C(C[C@H]1CC[C@H](NC(=O)c2ccncc2)[C@@H](CO)O1)Nc1ccc(-c2ccccc2)cc1
    x | x | -3.7 | x | x | x
O=C(NC[C@H]1CC[C@H]2[C@H](CN2C(=O)C2CC2)O1)c1cnccn1
    x | x | -2.1 | x | x | x
CN(C)CC#Cc1cccc(-c2nc(C(=O)N3CCN(Cc4ccccc4)CC3)cc3c2[C@H](CCO)N(S(=O)C(C)(C)C)C3)c1 (some centres undefined)
    x | x | 14 | x | x | x
O=S(=O)(NC[C@@H]1CC[C@@H]2[C@@H](CN2Cc2cccc(-c3ccccn3)c2)O1)c1ccccc1
    x | x | -1.5 | x | x | x
CC(C)NC(=O)N(C)C[C@@H]1Oc2ccc(NC(=O)CCCN(C)C)cc2CC(=O)N([C@H](C)CO)C[C@@H]1C
    x | x | 1.4 | x | x | x
Cc1ccc(S(=O)(=O)NC[C@@H]2CC[C@H]3[C@H](CN3Cc3ccccc3C(=O)O)O2)cc1
    x | x | -9.7 | x | x | x
CC(=O)N[C@H]1C[C@@H]2O[C@@H](CO)CC[C@@H]2O[C@@H]1CCc1ccc(-c2ccc(F)cc2)cc1
    x | x | 1.2 | x | x | x
O=C(NC[C@@H]1CC[C@@H]2[C@@H](CN2S(=O)(=O)c2ccccc2[N+](=O)[O-])O1)c1cnccn1
    x | x | 1.2 | x | x | x
COCC(=O)N[C@H]1C[C@@H]2O[C@@H](CO)CC[C@@H]2O[C@@H]1CCc1ccc(-c2ccccc2)cc1
    x | x | -18 | x | x | x
CCCc1cn([C@H]2C[C@@H]3O[C@@H](CO)CC[C@@H]3O[C@@H]2CCc2ccc(-c3cccc(OC)c3)cc2)nn1
    x | x | -0.7 | x | x | x
CN1C(=O)c2cc(NC(=O)c3cncs3)ccc2OC[C@H]2O[C@@H](CC(=O)Nc3ccccc3F)CC[C@@H]21
    x | x | -10 | x | x | x
O=C(c1ccccc1F)N1C[C@H]2O[C@H](CNS(=O)(=O)c3ccccc3)CC[C@H]21
    x | x | -3.6 | x | x | x
C/C(=N\NC(=O)c1ccc(-c2ccccc2)cc1)c1cccc(N)c1
    x | x | -3.2 | -3 | x | -1.3
C[C@@H]1CN([C@H](C)CO)C(=O)c2cc(C#Cc3ccccn3)cnc2O[C@@H]1CN(C)Cc1ccccc1
    5 | 1.3 | x | x | -1 | x
CCCN1C[C@H](C)[C@@H](OC)CN(C)C(=O)c2ccc(NC(=O)c3ccc(F)cc3)cc2OC[C@@H]1C
    0 | 3.7 | x | x | 3 | x
COCC(=O)Nc1ccc2c(c1)OC[C@@H](C)N(C(=O)NC(C)C)C[C@H](C)[C@@H](OC)CN(C)C2=O
    3 | -3.8 | x | x | 0 | x
CCCC#Cc1cnc2c(c1)C(=O)N([C@H](C)CO)C[C@@H](C)[C@H](CN(C)C(=O)C1CCCCC1)O2
    0 | -2.0 | x | x | 6 | x
C[C@@H]1CN([C@H](C)CO)C(=O)CCCn2cc(nn2)CO[C@@H]1CN(C)C(=O)C1CC1
    0 | -1.1 | x | x | -7 | x
C[C@H](CO)N1C[C@H](C)[C@H](CN(C)S(=O)(=O)c2ccccc2)Oc2c(NC(=O)Nc3ccc(C(F)(F)F)cc3)cccc2C1=O
    3 | 3.0 | x | x | 3 | x
COc1ccc(C#Cc2ccc([C@@H]3[C@@H](CO)N4CCCCN(C(=O)Nc5cccc(F)c5)C[C@H]34)cc2)cc1
    -30 | 25 | x | x | -7 | x
OC[C@@H]1[C@@H](c2ccccc2)C2(CN(Cc3ccccn3)C2)N1CCC(F)(F)F
    3 | -1.9 | x | x | 18 | x
C[C@@H]1CN([C@@H](C)CO)S(=O)(=O)c2ccc(-c3ccc(F)cc3)cc2O[C@H]1CN(C)Cc1cccc(F)c1
    4 | -1.1 | x | x | 3 | x
CCCN1C[C@H](C)[C@@H](OC)CN(C)C(=O)c2cc(NC(=O)COC)ccc2OC[C@H]1C
    4 | -2.1 | x | x | 6 | x
C[C@H]1CN([C@@H](C)CO)S(=O)(=O)c2ccc(-c3ccc(F)cc3)cc2O[C@H]1CN(C)C(=O)Nc1ccc(F)cc1
    -2 | 1.7 | x | x | -4 | x
Cc1noc(C)c1NC(=O)N1C[C@H](O)COC[C@H]2O[C@@H](CC(=O)N[C@@H]3CCN(Cc4ccccc4)C3)CC[C@@H]21
    1 | -2.7 | x | x | 11 | x
CC(C)NC(=O)N(C)C[C@H]1Oc2ccc(N)cc2C(=O)N(C)C[C@@H]1C
    1 | -0.4 | x | x | 7 | x
O=C(NC[C@@H]1N[C@@H](CO)[C@H]1c1ccccc1)c1ccccc1F
    0 | -3.8 | x | x | 2 | x
C[C@H]1CN([C@@H](C)CO)C(=O)Cc2cc(N(C)C)ccc2O[C@H]1CN(C)Cc1ccc(C(=O)Nc2ccccc2N)cc1
    -2 | -0.1 | x | x | -8 | x
CCCC#Cc1ccc2c(c1)O[C@@H](CN(C)C(=O)C1CCCCC1)[C@@H](C)CN([C@H](C)CO)S2(=O)=O
    -7 | 4.6 | x | x | -14 | x
C[C@H](CO)N1C[C@H](C)[C@H](CN(C)C(=O)Nc2cccc(Oc3ccccn3)c2)OCc2cn(nn2)CCCC1=O
    4 | -1.7 | x | x | 1 | x
C[C@@H]1CN([C@@H](C)CO)C(=O)Cc2cc(NC(=O)Cn3cnnn3)ccc2O[C@H]1CN(C)C(=O)Nc1ccc(F)cc1
    7 | 2.1 | x | x | 13 | x
C[C@@H]1CN([C@@H](C)CO)C(=O)c2cc(NS(=O)(=O)c3ccccc3)ccc2O[C@@H]1CN(C)S(=O)(=O)c1ccc(Cl)cc1
    -3 | 0.0 | x | x | -16 | x
COc1ccc(-c2cnc3c(c2)C(=O)N([C@H](C)CO)C[C@@H](C)[C@@H](CN(C)C(=O)C2CC2)O3)cc1
    2 | 0.8 | x | x | 3 | x
CN(C)C(=O)c1cccc(-c2ccc3c(c2)[C@@H]2[C@@H](CCN2C(=O)c2ccc4c(c2)OCO4)[C@@H](CO)N3)c1
    -1 | 1.5 | x | x | 8 | x
C[C@@H]1CN([C@H](C)CO)C(=O)c2cccc(NC(=O)Nc3ccc(F)cc3)c2O[C@@H]1CN(C)S(=O)(=O)c1cn(C)cn1
    -3 | -0.6 | x | x | 7 | x
Cc1ccc(OC(=O)N(C)C[C@H]2OCc3ccccc3-c3ccccc3C(=O)N([C@@H](C)CO)C[C@H]2C)cc1
    0 | -0.1 | x | x | -1 | x
CCCNC(=O)N1CC(=O)N2[C@@H](CO)[C@H](c3ccc(C#Cc4ccccc4)cc3)[C@@H]2C1
    2 | 12 | x | x | -30 | x
CO[C@H]1CN(C)C(=O)c2ccc(NC(C)=O)cc2OC[C@H](C)N(C(=O)c2ccccc2F)C[C@@H]1C
    3 | -3.1 | x | x | 4 | x
C[C@H](NC(=O)C[C@@H]1CC[C@H]2[C@H](COc3ccc(NS(=O)(=O)c4ccc(Cl)cc4)cc3C(=O)N2C)O1)c1ccccc1
    -3 | 4.9 | x | x | -19 | x
COCC(=O)N(C)C[C@H]1Oc2cc(-c3ccc(C#N)cc3)ccc2S(=O)(=O)N([C@H](C)CO)C[C@@H]1C
    -2 | -1.3 | x | x | 14 | x
COc1ccc2c3c([nH]c2c1)[C@@H](CO)N(C(=O)c1cccc(F)c1)CC31CCN(C(C)=O)CC1
    0 | 0.3 | x | x | 12 | x
C[C@@H]1CN([C@H](C)CO)C(=O)Cc2cc(NC(=O)Nc3ccc(C(F)(F)F)cc3)ccc2O[C@@H]1CN(C)S(=O)(=O)c1ccc(F)cc1
    4 | 2.9 | x | x | -3 | x
O=C1[C@H](Cc2ccc(C(F)(F)F)cc2)CCn2nncc2COC[C@H]2CCCCN12
    3 | -0.1 | x | x | 3 | x
CNC[C@@H]1Oc2ccc(NC(C)=O)cc2CC(=O)N(C)C[C@H]1C
    2 | -3.0 | x | x | 0 | x
C[C@@H]1CN(C)C(=O)Cc2cc(N(C)C)ccc2O[C@@H]1CN(C)S(C)(=O)=O
    0 | 0.5 | x | x | 0 | x
C[C@H]1CN([C@@H](C)CO)C(=O)c2cc(NS(=O)(=O)c3ccccc3)ccc2O[C@@H]1CN(C)C(=O)Nc1ccc(C(F)(F)F)cc1
    -3 | 2.0 | x | x | -2 | x
C[C@H](CO)N1C[C@H](C)[C@@H](CN(C)C(=O)C2CCC2)Oc2cc(Br)ccc2S1(=O)=O
    -5 | -6.7 | x | x | 5 | x
C[C@@H]1CN([C@@H](C)CO)C(=O)c2cccc(NC(=O)CCCCCC(=O)Nc3ccccc3N)c2O[C@@H]1CN(C)CC1CCCCC1
    2 | 0.0 | x | x | 3 | x
